# VDR inhibitor = inhibitors of human vitamin D receptor | Potency, µM, without a hit: max response, negative = inhibition, hits mostly inhibitors | VDR-SRC2-3 peptide fluorescence polarization, 2 h | AID 504847 | actives 0.93% (n = 400,000) | P11473; active = well fitted inhibition curve with a large enough effect; inconclusive = small, poorly fitted or top-dose-only effect, or another doubt; inactive = no such curve, though single readings can be large or run the other way; also: series mostly up to about 120 µM
# Target sequence (P11473 whole entry, looked up): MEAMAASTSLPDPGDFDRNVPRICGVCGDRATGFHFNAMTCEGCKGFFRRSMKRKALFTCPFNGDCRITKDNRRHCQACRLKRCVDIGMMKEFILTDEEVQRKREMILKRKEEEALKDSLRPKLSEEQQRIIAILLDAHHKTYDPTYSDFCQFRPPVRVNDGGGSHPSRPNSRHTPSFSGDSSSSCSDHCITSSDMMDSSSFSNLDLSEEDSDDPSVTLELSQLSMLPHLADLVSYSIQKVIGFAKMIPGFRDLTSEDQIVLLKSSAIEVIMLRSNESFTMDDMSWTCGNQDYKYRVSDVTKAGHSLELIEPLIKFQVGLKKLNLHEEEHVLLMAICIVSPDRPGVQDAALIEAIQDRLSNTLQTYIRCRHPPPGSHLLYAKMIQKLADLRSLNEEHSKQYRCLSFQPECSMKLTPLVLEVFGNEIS
#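 FP read-out; VDR + SRC2-3 coactivator peptide; 23 nl compound by pintool; 2 h RT incubation; reagents held at 4 deg C, protected from light.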
# * marks the source's active call; other numbers are inactive results; ? = inconclusive; & = joins results of further samples; [ ] = remark or other dose. % is scaled to controls: 0 for no effect and ±100 for the full control effect; potency is read from the fitted curve at half-maximal effect.
SMILES,VDR inhibitor
Cc1ccc(S(=O)(=O)Nc2c(C)n(C)n(-c3ccccc3)c2=O)cc1C(=O)NCc1ccco1,-16.0%
O=C(NCc1ccccc1)c1nc[nH]c1C(=O)NCc1ccccc1,9.1%
CCCN(CCC)CC(O)Cn1cc(/C=C/C(=O)c2cccs2)c2ccccc21 (centres undefined),9.4%
C=C1C[C@@]23C[C@@]1(O)CCC2[C@@]12C=CC(O)[C@](C)(C(=O)O1)C2C3C(=O)O (some centres undefined),5.2%
Cc1cc(Nc2c(C)n(C)n(-c3ccccc3)c2=O)n2c(nc3ccccc32)c1C#N,-9.3%
CCOc1ccc(-n2c(SCC(=O)NC3CCS(=O)(=O)C3)nnc2-c2cccnc2)cc1 (centres undefined),6.1%
Nn1c(SCC(=O)NC(=O)NC2CCCC2)nnc1-c1ccccc1F,11.7%
COc1ccc(S(=O)(=O)N2CCOCC2)cc1NC(=O)c1ccncc1,-8.4%
O=C(CN1CCN(Cc2ccccc2)CC1)N/N=C/C=C/c1ccccc1[N+](=O)[O-],8.8%
Cc1ccc(CN2COc3ccc4c(C)cc(=O)oc4c3C2)cc1,-1.8%
O=C(O)c1ccc(CNCc2cccc(Cl)c2Cl)cc1,-16.7%
COc1cccc(C2c3[nH]c4ccccc4c3CCN2Cc2cnn(C)c2)c1 (centres undefined),3.2%
CCSc1nnc2c(n1)OC(c1sccc1C)N(C(C)=O)c1ccccc1-2 (centres undefined),-8.8%
Cc1cccc(Cn2c(N3CCN(CCO)CC3)nc3c2c(=O)[nH]c(=O)n3C)c1,-4.5%
COc1ccc(C)cc1NC(=O)CN1CCN(S(=O)(=O)c2ccc(C(C)C)cc2)CC1,-15.2%
O=C(O)c1cccc(N/N=C/c2cn(-c3ccccc3)nc2-c2cccs2)c1,-4.5%
Cc1c(-c2nnnn2-c2ccc(F)cc2)cnc2cc3c(cc12)OCO3,29.5%
O=C(C1COc2ccccc2O1)N(Cc1cccnc1)c1nc2c(F)cc(F)cc2s1 (centres undefined),4.7%
O=[N+]([O-])c1ccc(N2CCN(S(=O)(=O)c3ccccc3)CC2)cc1NCC1CCCO1 (centres undefined),-13.5%
CCCN(Cc1cccs1)C(=O)Nc1ccc(OCC)cc1,0.2%
O=C(CSc1n[nH]c(=O)n1-c1cccnc1)Nc1ccccc1,18.9%
Cc1nnsc1C(=O)N1CCC(C(=O)c2ccccc2)CC1,-9.5%
CC(C)c1ccc(C(=O)OCC(=O)NC2CCCC2)cc1,1.6%
Cc1ccc(C(=O)CSc2nc(-c3ccccc3)nc3c2CCCC3)c(C)c1,3.9%
COc1ccc(NC(=O)CN(C)S(=O)(=O)c2cnc[nH]2)cc1,-8.5%&1.0%
Nc1ncnc(N2CCOCC2)c1N,4.2%
Cc1cc(C)n(-c2nc3ccccc3c(=O)n2OC2CCCCC2)n1,-15.9%
CC(C)=NOC(=O)c1ccc(-c2ccccc2)cc1,4.1%
O=C(CSc1ncccn1)N/N=C/c1ccc2c(c1)OCO2,6.1%
CC(C)(C)OC(=O)N1CCC(c2c(C(=O)N3CCN(C(=O)c4ccco4)CC3)cnn2-c2ccc(F)cc2F)CC1,-0.7%&10.1%
OCC[C@@H]1C[C@H](O)[C@@H](O)[C@@]2(CCCc3ccccc3O2)O1,-3.7%
CC(Oc1ccccc1)C(=O)NC1=NCCS1 (centres undefined),2.0%
NS(=O)(=O)c1ccc(NC(=S)NC(=O)c2ccco2)cc1,-26.9%
O=C(COC(=O)c1ccc(O)cc1)NC(=O)NCc1ccccc1,-8.7%
CCOC(=O)c1c(NC(=O)CSc2cn(CCNC(=O)c3ccc(OC)c(OC)c3)c3ccccc23)sc2c1CCC2,-4.2%
CN(C)CCNC(C(=O)Nc1cc(Cl)cc(Cl)c1)c1ccccc1 (centres undefined),6.3%
COc1cc(/C=C2\CCCc3c2nc2ccccc2c3C(=O)O)cc(Br)c1O,-1.2%
CCOc1ccc(CNC(=O)c2nn(-c3ccc(OC)cc3)c(=O)c3c2c2ccccc2n3C)cc1,-12.3%
Cc1nc(SCCO)c([N+](=O)[O-])[nH]1,-6.2%
C=CCn1c(SCC(=O)c2ccc(Cl)s2)nc2ccccc2c1=O,15.8%
O=C(CN1CCOCC1)Nc1ccc([N+](=O)[O-])cc1Br,3.2%
O=C(O)c1cc(-c2ccc(/C=N/Nc3ccc([N+](=O)[O-])cn3)o2)ccc1Cl,?
CN=C1CC(C)(C)CC(=O)/C1=C(/O)CCCN1C(=O)c2ccccc2C1=O,-8.5%
CC1(C)CC2CC(C)(CN2C(=O)COC(=O)c2ccc(Cl)cc2N)C1 (centres undefined),6.4%
CC(=O)c1ccc(NC(=O)CSc2nc(N)c3cc4c(nc3n2)CCCC4)cc1,-3.3%
CC(C)NCCCCOc1ccc(Br)cc1Cl,-6.3%
O=C(NCC1CC1)Nc1ccc(Cl)cc1,0.3%
Cc1ccc2nc(C)cc(C(=O)OCC(=O)Nc3cccnc3Cl)c2c1,5.8%
Cc1nn(-c2ccc(N3CCOCC3)nn2)c(C)c1CCC(=O)NCc1ccc(Cl)cc1,3.1%
NNc1nc2ccc(Cl)cc2s1,-27.8%
# More records
SMILES,VDR inhibitor
CCOc1ccc(NC(=O)CSc2nnc(CCNC(=O)c3ccc(OC)cc3)n2CC)cc1,-1.4%
Fc1ccccc1C1=NC(c2ccc(C(F)(F)F)cc2)=Nc2ccccc2N1,-3.6%
CCOc1ccc(C(=O)NCC(=O)NCCOc2ccc(C)cc2)cc1,-1.8%
CC(=O)Nc1c2c(nn1-c1ccccc1)CS(=O)C2 (centres undefined),-9.3%
Cc1ccc(C2NC(=O)c3c(sc4c3CCN(C)C4)N2)s1 (centres undefined),?
COc1ccc(NS(=O)(=O)c2ccc(N3CCCCS3(=O)=O)cc2)cc1Cl,11.0%
CCOC(=O)C1(CCOc2ccccc2)CCN(Cc2ccc(OC)c(O)c2)CC1,29.7%
COc1ccccc1N(C)S(=O)(=O)c1ccc(Cl)c(C(=O)NNC(=O)c2ccccc2O)c1,-5.1%
CCN(CCCNC(=O)CN1N=C(c2ccc(OC)cc2)CCC1=O)c1cccc(C)c1,15.2%
CCc1cc(=O)oc2cc(OCC(=O)NC3CC(C)(C)NC(C)(C)C3)ccc12,1.5%
O=S(=O)(c1ccc(F)c(F)c1F)N1CCN(C(=S)Nc2ccccc2)CC1,-8.4%
COc1ccc(CC2(c3ccccc3)NC(=O)NC2=O)cc1 (centres undefined),-6.8%
Nc1c(-c2ccc(F)cc2)cnc2ncnn12,-0.7%
Cc1ccc2c3c([nH]c2c1)C(=O)CC(C)(C)S3,0.4%
COc1ccc(CN2CCNC(=O)C2CC(=O)NCCN2CCCCC2=O)c(F)c1 (centres undefined),4.3%
NC(=O)C1CCN(C(=O)C2CCN(C(=O)Nc3ccccc3)CC2)CC1,-0.4%
CC(C)C(=O)N1CCN(c2nc(-c3ccccc3)c3c(c2C#N)CC(C)(C)OC3)CC1,-14.3%
C/C(=N\NC(=O)c1ccc(O)cc1O)c1cccnc1,1.9%
CC(=O)N1CCC[C@@]2(CCN(Cc3nccs3)C2)C1,-5.4%
CCCCNC(=O)CCCCC(=O)N/N=C/c1ccccc1Cl,-9.1%
CCN1CCN(c2ccc(S(=O)(=O)N3CCCCC3)cc2NC(=O)c2cccc(C)c2[N+](=O)[O-])CC1,-25.6%
CCOC(=O)c1cc(NC(=O)c2cc(C)on2)cc(C(=O)OCC)c1,8.7%
Oc1ccc2ccccc2c1/C=C/c1ccc2c(Br)cc(Br)c(O)c2n1,-8.4%
CC(C)(C)c1ccc(C(=O)NC(=S)NCC2CCCO2)cc1 (centres undefined),-7.0%
O=c1oc2ccccc2c(NC2CCCCC2)c1NS(=O)(=O)c1ccc(F)c(Cl)c1,-13.7%
Cc1cc(C)c(C)c(S(=O)(=O)N2CCN(C(=O)CCc3nc4ccccc4c(=O)[nH]3)CC2)c1C,7.8%
CS(=O)(=O)N(CC(=O)NC1CCCC1)c1ccc(Oc2ccccc2)cc1,8.4%
O=C(NCc1ccccc1)[C@H]1C[C@@H]1[C@H](NP(=O)(c1ccccc1)c1ccccc1)c1ccccc1,-26.9%
CCS(=O)(=O)N1CCC(C(=O)Oc2ccccc2)CC1,4.8%
CC(=O)OC(C)C1C2=C(C(=O)CC1(C)O)C(=O)c1c(ccc(-c3ccc4c(c3O)C(=O)C3=C(C4=O)C(C(C)OC(C)=O)C(C)(O)CC3=O)c1O)C2=O (centres undefined),?
Cc1cccc(C)c1NC(=S)N(Cc1ccco1)C1CCN(C(C)C)CC1,-17.3%
COc1ccccc1C1C=C(c2ccc(C(C)C)cc2)Nc2nnnn21 (centres undefined),8.3%
CCOc1ccc2nc(NCCNS(=O)(=O)c3ccccc3)c(C#N)cc2c1,5.9%
O=C(Nc1ccc(Cl)cc1)N1CCC(c2nc(-c3ccc(F)cc3)no2)CC1,9.3%
CCC1CN(C(=O)C2CCN(S(=O)(=O)c3c(C)noc3/C=C/c3ccc(C)cc3)CC2)c2cc(C)ccc2O1 (centres undefined),3.3%
COc1ccc(-c2cc(C(=O)N3CCCC3)c3ccccc3n2)cc1OC,-14.5%
CCc1cc2c(NCc3ccco3)ncnc2s1,-16.4%
CCOc1cccc(C(=O)Nc2ccccc2C(=O)N2CCN(C)CC2)c1,7.0%
CCCn1c(SCC(=O)OCC)nc(C(F)(F)F)cc1=O,8.1%
CCn1cc(C(=O)NCc2ccc(Cl)cc2)c(=O)c2cc(S(=O)(=O)N(C)C3CCCCC3)ccc21,9.8%
CN(C)c1ncc2nc(-c3cccc(C#N)c3)c(=O)n(CCC#N)c2n1,1.0%
CCn1nc(C)cc1C(=O)N(C)C1CCCN(Cc2ccccc2F)C1 (centres undefined),-6.8%
CCN(CC)CCNC(=O)Cn1cnc2sc(C)c(S(=O)(=O)N3CCC(C)CC3)c2c1=O,-1.2%&-5.3%
CC(=O)Nc1cccc(S(=O)(=O)N2CCCCCC2)c1,8.2%
CC(C)(OC(=O)NC(=O)C(F)(F)F)C(C)(C)OC(=O)NC(=O)C(F)(F)F,-3.8%
CN(CC#CC(O)(c1ccccc1)c1ccccc1)C(C)(C)C,3.0%
O=C(CN(c1ccccc1Cl)S(=O)(=O)c1ccccc1)NCc1ccccc1,8.9%
Cc1nn(-c2ccccc2)c(C)c1/C=N/NC(=O)CSc1nnc(SCc2ccc(Cl)cc2)s1,-16.4%
CCOc1ccc(CN2CCCC(CO)(Cc3ccc(F)cc3)C2)cc1 (centres undefined),4.1%
CNC(=O)c1c(NC(=O)c2cc(=O)c3cc(C)c(C)cc3o2)sc2c1CCCC2,5.1%
# (listing goes on)
SMILES,VDR inhibitor
CC(=O)Oc1ccc(-c2cc3c(OC(C)=O)cc(OC(C)=O)cc3oc2=O)cc1,10.0%
CC(C)CN(C(=O)c1ccc([N+](=O)[O-])s1)c1c(N)n(Cc2ccccc2)c(=O)[nH]c1=O,-1.3%
Cc1cc(C(=O)NNC(=O)c2ccccc2[N+](=O)[O-])c(C)o1,-7.3%
COc1cc(NC(=O)CN(c2cc(C)cc(C)c2)S(=O)(=O)c2c(C)[nH]c(=O)[nH]c2=O)cc(OC)c1,-18.7%&-8.5%
O=C(c1cccc(N2C(=O)C3C4C=CC(C4)C3C2=O)c1)N1CCN(c2ccccc2Cl)CC1 (centres undefined),-6.1%
COc1ccc(/C=N/NC(=O)CCCC(=O)NC2CCCCC2)cc1,11.5%
CCOC(=O)c1c(C)[nH]c(C(=O)OCC(=O)Nc2cccnc2Cl)c1C,-6.8%
COc1ccc(N2CSC3=C(C#N)C(c4cc(OC)c(OC)cc4OC)CC(=O)N3C2)c(OC)c1 (centres undefined),44.7µM*
COc1ccc(NC(=O)c2ccco2)cc1NC(=O)c1ccccc1F,32.1%[activator]
COC(=O)[C@@]12CCCCN1[C@H](c1ccc(-c3ccc4c(c3)OCO4)cc1)[C@H]1C(=O)N(C)C(=O)[C@H]12,-1.4%

# Looked up by compound from the entries so far (6):
SMILES,VDR inhibitor
Nn1c(SCC(=O)NC(=O)NC2CCCC2)nnc1-c1ccccc1F,11.7%
CC(=O)OC(C)C1C2=C(C(=O)CC1(C)O)C(=O)c1c(ccc(-c3ccc4c(c3O)C(=O)C3=C(C4=O)C(C(C)OC(C)=O)C(C)(O)CC3=O)c1O)C2=O (centres undefined),?
C=CCn1c(SCC(=O)c2ccc(Cl)s2)nc2ccccc2c1=O,15.8%
Cc1ccc(C(=O)CSc2nc(-c3ccccc3)nc3c2CCCC3)c(C)c1,3.9%
CN(C)CCNC(C(=O)Nc1cc(Cl)cc(Cl)c1)c1ccccc1 (centres undefined),6.3%
O=C(NCc1ccccc1)c1nc[nH]c1C(=O)NCc1ccccc1,9.1%

# Going on with the list.
SMILES,VDR inhibitor
CCOc1ccc2c(C)c(Cl)c(=O)oc2c1,18.8%
CC(C)(C)S(=O)(=O)c1cnc(N2CCOCC2)nc1N,-13.7%
O=C(CCC1N=C2c3ccccc3N=C(SCc3ccc(Cl)cc3)N2C1=O)N1CCN(c2ccccc2)CC1 (centres undefined),-7.5%
CCCOc1ccc(N2C(=O)CC(SC(=NCC)NCC)C2=O)cc1 (centres undefined),3.2%
COc1ccc(CCNC(=O)CCNS(=O)(=O)c2ccc3c(c2)CCN3C(C)=O)cc1OC,-7.9%
COc1ccc(-n2nc3ccc(N)cc3n2)cc1Cl,-10.1%
O=C(NCc1ccccn1)c1ccc(Cn2cc(C(F)(F)F)ccc2=O)cc1,3.5%
CCOC(=O)CCNC(=O)N1CCCC(N2CCN(c3ccc(OC)cc3)CC2)C1 (centres undefined),11.4%
OC[C@@H](O)[C@H](O)C(/C=N/Nc1ccccc1)=N\Nc1ccccc1,-23.1%
COc1ccc(C)cc1Nc1nc(-c2c[nH]c3ccccc23)cs1,7.6%

# Arranged by length of the SMILES (largest number first): 3 of the compounds above.
SMILES,VDR inhibitor
O=C(CN(c1ccccc1Cl)S(=O)(=O)c1ccccc1)NCc1ccccc1,8.9%
Cc1cc(C)n(-c2nc3ccccc3c(=O)n2OC2CCCCC2)n1,-15.9%
Cc1nnsc1C(=O)N1CCC(C(=O)c2ccccc2)CC1,-9.5%

# Bioassay records from PubChem.

# Only part of the results is shown; rates above refer to the full screens.
